aGal spleen mod: alpha-galactosidase A (human) modulation; P06280; human spleen homogenate, 4MU-alpha-Gal fluorescence, 40 min; Potency, µM (top dose mostly 80 µM), without a hit: top-dose activity change, negative = inhibition, actives largely listed as inhibitors; 240,000 compounds, 0.008% hits;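 note: 0% = enzyme with vehicle and -100% = no enzyme basal signal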
Target sequence (P06280 32-429 limits assumed): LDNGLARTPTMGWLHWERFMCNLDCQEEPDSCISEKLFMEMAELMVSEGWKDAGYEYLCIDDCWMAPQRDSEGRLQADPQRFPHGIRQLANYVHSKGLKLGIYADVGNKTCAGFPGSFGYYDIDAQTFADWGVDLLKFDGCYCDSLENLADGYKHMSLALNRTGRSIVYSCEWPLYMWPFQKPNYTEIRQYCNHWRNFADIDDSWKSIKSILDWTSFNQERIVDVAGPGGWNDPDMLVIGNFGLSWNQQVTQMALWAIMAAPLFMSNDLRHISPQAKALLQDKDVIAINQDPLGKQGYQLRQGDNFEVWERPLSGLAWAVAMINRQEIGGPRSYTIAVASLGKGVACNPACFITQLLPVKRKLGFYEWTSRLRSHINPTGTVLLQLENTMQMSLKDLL
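Human spleen homogenate (1 ug) was the enzyme source, with 4-methylumbelliferyl-alpha-D-galactopyranoside (1 mM final) in pH 5.0 citrate buffer with 0.01% Tween-20. Compounds were titrated; after 40 min at 37C, NaOH/glycine stop, 4-MU fluorescence read; AC50 from Hill fits.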
Tau FP inhib: blocks human tau fibril formation measured by polarization. K18 P301L tau heparin fibrillization, Alexa594 FP, 6 h. Potency, µM (top dose mostly 57.7 µM), for inactives: at the top dose activity, negative = inhibition, most hits filed as inhibitors. 280,000 compounds, 0.39% hits; note: nearly all actives have a fitted effect of over 55% in size
Target sequence (P10636 561-689 P618L limits assumed): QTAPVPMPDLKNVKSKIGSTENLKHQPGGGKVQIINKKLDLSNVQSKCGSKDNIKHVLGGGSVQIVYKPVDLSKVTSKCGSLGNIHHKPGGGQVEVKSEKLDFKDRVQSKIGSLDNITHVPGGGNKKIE
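Compound effects on tau fibrillization are measured by Alexa 594 fluorescence polarization (ex 555, em 632 nm). K18 P301L tau is used at 15 uM with 0.24 uM labeled tracer, and 20 uM heparin induces aggregation over 6 hr at 37 C.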
L3MBTL1 block: L3MBTL1 (human) inhibition; Potency, µM (top dose mostly 57.1 µM), inactives show at the top dose activity, negative = inhibition, most hits filed as inhibitors; AID 485360; Q9Y468; AlphaScreen L3MBTL1–H3K9me1 peptide binding; 230,000 compounds, 0.66% hits; note: nearly all actives have a fitted effect of over 60% in size
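Displacement of a biotinylated histone H3(1-15) peptide monomethylated at Lys9 (75 nM) from L3MBTL1 (50 nM) was measured by AlphaScreen after a 30 min room-temperature compound incubation; cefsulodin titration served as intraplate control.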
Tau fluor cs: counter-screen for tau fibril formation inhibitors. tau K18 P301L Alexa594 fluorescence, heparin fibrillization. Potency, µM (titrated, usually from 57.7 µM), for the others: at the highest dose activity change, negative = decrease. 280,000 compounds, 0.93% hits; note: nearly all actives have a fitted effect of over 55% in size
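Human tau K18 P301L (15 uM unlabeled, 0.24 uM Alexa 594-labeled) in 100 mM sodium acetate pH 7 with 20 uM heparin, 6 hr at 37 C. ThT 30 uM added, 1 hr ambient; Alexa 594 FP and total fluorescence read at 555/632 nm.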
Starred values were filed as active, the others as inactive; ? = inconclusive; / = not tested or not shown; & = joins results of further samples; [ ] = remark or other dose. Calls come from the whole dose curve; as a rule, active = well fitted curve in the direction sought with a large enough effect; inconclusive = small, poorly fitted or top-dose-only effect, or another doubt; inactive = no such curve, though single readings can be large; an effect the other way counts as inactive or inconclusive. Unless noted, % is set by controls: 0 for no effect and ±100 for the full control effect; potency is the fitted concentration of half-maximal effect.

SMILES | aGal spleen mod | Tau FP inhib | L3MBTL1 block | Tau fluor cs
C=CC(C)=O | 0% | / | / | /
CC1=C2C[C@H]3[C@@H](CC=C4C[C@@H](O)CC[C@@]43C)[C@@H]2CC[C@]12O[C@@H]1C[C@H](C)CN[C@H]1C2C (some centres undefined) | 6% | 5% | / | -6%
O=C1CC[C@]2(O)C3Cc4ccc(O)c5c4C2(CCN3CC2CC2)C1O5 (some centres undefined) | 3% | -3% | / | -5%
CC[C@H](Oc1ccc(Cl)cc1)C(=O)OC1C[C@H]2CC[C@@H](C1)N2C (some centres undefined) | -2% | -1% | / | 0%
C[C@@H](N)[C@@H](O)c1ccc(O)c(O)c1 | -12% | ? | / | ?
Oc1cc(Cl)c(Cl)c(Cl)c1 | 1% | / | / | /
O=C(O)COc1ccc(Cl)cc1Cl | -1%&-6%&2% | -5% | / | -4%
CC(N)C(O)c1ccc(O)c(O)c1 (centres undefined) | -3%&8% | ? | / | ?
O=C(C1CCC(=O)N1Cc1ccccc1Cl)N1CCC2(CC1)OCCO2 (centres undefined) | 5% | 12% | / | 0%
Cc1ccccc1N1C(=O)CC(=O)N(c2ccccc2C)C1=O | -5% | -4% | 0% | 2%
Cc1ccc2c(c1)C1CN(C)CCC1N2C(=O)Cn1nnc(-c2ccccc2F)n1 (centres undefined) | -2% | 10% | / | -11%
Cc1ccn2nc(S(=O)(=O)Nc3c(F)cccc3F)nc2n1 | 6% | 3% | -4% | 10%
CCC1(CC)C(=O)NC(=O)NC1=O | 14% | -3% | / | 1%
CC(=O)[C@@]1(O)CC[C@H]2C3CCC4=CC(=O)CC[C@]4(C)C3CC[C@@]21C (some centres undefined) | 1% | -2% | / | -6%
CCOc1cc(OP(=S)(OC)OC)nc(CC)n1 | 14% | / | / | /
Cc1ccc(Cc2c(C)nc3nc(SCC(=O)N4CCC5(CC4)OCCO5)nn3c2C)cc1 | -12% | 2% | / | -8%
N[C@@H](Cc1ccc(N(CCCl)CCCl)cc1)C(=O)O | -2% | / | -6% | /
O=C1CC[C@]2(O)[C@H]3Cc4ccc(O)c5c4[C@@]2(CCN3CC2CC2)[C@@H]1O5 | 13%[29.1 µM] | / | / | /
Cc1c(N=Cc2c(O)n(Cc3ccc(F)cc3)c(=O)[nH]c2=O)c(=O)n(-c2ccccc2)n1C | -1% | 5% | / | -7%
CCOc1ccc(NC(=O)c2ccc(NC(=O)COC(=O)Cc3ccccc3)cc2)cc1 | 1% | -2% | -5% | 0%
COc1cc(OC)c(OC)cc1CNCCc1ccc(OC)c(OC)c1 | -6% | 1% | -15% | 2%
CN1CCC23CCCC[C@H]2C1Cc1ccc(O)cc13 (some centres undefined) | -16% | ? | / | ?
CCN1CCN(c2ccc([N+](=O)[O-])cc2C(=O)OC)CC1 | 2% | 6% | -7% | -7%

Arranged by SMILES length (largest number first): some entries from above.
SMILES | aGal spleen mod | Tau FP inhib | L3MBTL1 block | Tau fluor cs
CC1=C2C[C@H]3[C@@H](CC=C4C[C@@H](O)CC[C@@]43C)[C@@H]2CC[C@]12O[C@@H]1C[C@H](C)CN[C@H]1C2C (some centres undefined) | 6% | 5% | / | -6%
Cc1c(N=Cc2c(O)n(Cc3ccc(F)cc3)c(=O)[nH]c2=O)c(=O)n(-c2ccccc2)n1C | -1% | 5% | / | -7%
O=C1CC[C@]2(O)[C@H]3Cc4ccc(O)c5c4[C@@]2(CCN3CC2CC2)[C@@H]1O5 | 13%[29.1 µM] | / | / | /
CC(=O)[C@@]1(O)CC[C@H]2C3CCC4=CC(=O)CC[C@]4(C)C3CC[C@@]21C (some centres undefined) | 1% | -2% | / | -6%
Cc1ccc(Cc2c(C)nc3nc(SCC(=O)N4CCC5(CC4)OCCO5)nn3c2C)cc1 | -12% | 2% | / | -8%
CC[C@H](Oc1ccc(Cl)cc1)C(=O)OC1C[C@H]2CC[C@@H](C1)N2C (some centres undefined) | -2% | -1% | / | 0%
CCOc1ccc(NC(=O)c2ccc(NC(=O)COC(=O)Cc3ccccc3)cc2)cc1 | 1% | -2% | -5% | 0%
O=C(C1CCC(=O)N1Cc1ccccc1Cl)N1CCC2(CC1)OCCO2 (centres undefined) | 5% | 12% | / | 0%
CCN1CCN(c2ccc([N+](=O)[O-])cc2C(=O)OC)CC1 | 2% | 6% | -7% | -7%
Cc1ccn2nc(S(=O)(=O)Nc3c(F)cccc3F)nc2n1 | 6% | 3% | -4% | 10%
C[C@@H](N)[C@@H](O)c1ccc(O)c(O)c1 | -12% | ? | / | ?
CCOc1cc(OP(=S)(OC)OC)nc(CC)n1 | 14% | / | / | /
O=C(O)COc1ccc(Cl)cc1Cl | -1%&-6%&2% | -5% | / | -4%
Oc1cc(Cl)c(Cl)c(Cl)c1 | 1% | / | / | /
C=CC(C)=O | 0% | / | / | /

Bioassay records as filed in PubChem BioAssay.

These rows are one share of the data; rates above refer to the full screens.
